Screens deposited in PubChem by National Center for Advancing Translational Sciences (NCATS).
Cruzain Triton = qHTS Assay for Promiscuous and Specific Inhibitors of Cruzain (with detergent) | Cruzipain (Trypanosoma cruzi), P25779 | purified cruzain, Z-FR-AMC fluorescence, 0.01% Triton | Potency, µM, without a hit: max response, negative = inhibition, most hits filed as inhibitors | 0.43% of 200,000 active; active means well fitted curve in the direction sought with a large enough effect; inconclusive means small, poorly fitted or top-dose-only effect, or another doubt; inactive means no such curve, though single readings can be large; an effect the other way counts as inactive or inconclusive;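 further: plate controls were neutral wells for no effect and buffer without enzyme for full effect; nearly all actives have a fitted effect of over 40% in size; top concentration of the series not given in the record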
Target sequence (P25779 123-467 limits assumed): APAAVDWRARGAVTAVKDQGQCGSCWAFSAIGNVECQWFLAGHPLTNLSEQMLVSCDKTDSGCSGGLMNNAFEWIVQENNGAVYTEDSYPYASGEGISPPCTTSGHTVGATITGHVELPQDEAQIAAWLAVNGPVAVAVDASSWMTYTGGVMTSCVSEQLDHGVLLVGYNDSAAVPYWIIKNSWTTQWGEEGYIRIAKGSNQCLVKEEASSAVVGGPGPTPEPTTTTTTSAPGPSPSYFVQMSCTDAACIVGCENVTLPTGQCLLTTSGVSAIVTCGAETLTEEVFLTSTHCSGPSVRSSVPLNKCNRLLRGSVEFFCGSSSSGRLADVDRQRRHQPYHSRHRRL
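Steps: dispense cruzain (1.5 nM final) in acetate buffer pH 5.5 with DTT and 0.01% Triton X-100; pin-transfer compounds; incubate 15 min RT; add Z-FR-AMC (2 uM final); read fluorescence every 30 s, using the 60 s intensity change.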
StopGo reporter = High Throughput Screening for Foot and Mouth Disease Virus Antivirals | AID 1159524, 2015 | human cells with a luciferase reporter of 2A StopGo recoding; control for the full effect not named in the record | 1.2% of 410,000 active | Potency, µM (doses to about 57.9 µM), without a hit: at the highest dose signal change, negative = less light; active = well fitted falling curve with a large enough effect; inconclusive = small, poorly fitted or top-dose-only effect; inactive = no such curve, though single readings can be large or run the other way; tested in HEK293T cells; further: on the % scale 0 is the no-effect control and ±100 the full control effect; nearly all actives have a fitted effect of over 45% in size; luciferase light after 4 h
LASV entry inh = qHTS for Inhibitors of binding or entry into cells for Lassa Virus; Lassa virus pseudotype entry inhibition, cell reporter; control for the full effect not named in the record; Potency, µM (top dose mostly 37.9 µM), for the others: top-dose activity change, negative = inhibition, usual class: inhibitors; 1.2% of 300,000 active; active means well fitted inhibition curve with a large enough effect; inconclusive means small, poorly fitted or top-dose-only effect, or effect the other way; inactive means flat fitted curve, though single readings scatter; tested in HEK293 cells; further: on the % scale 0 is the no-effect control and ±100 the full control effect; nearly all actives have a fitted effect of over 50% in size; luciferase read-out
NS1 inh = qHTS Assay for Inhibitors of Influenza NS1 Protein Function; S. cerevisiae slowed by influenza A NS1, growth recovery by OD600; Potency, µM (series often up to 46.1 µM), without a hit: top-dose activity, positive = more growth; 0.4% of 270,000 active; AID 2326, 2010; further: actives are rising curves; nearly all actives have a fitted effect of over 50% in size
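OD600 was taken as the measure of yeast growth restored by compound in an NS1-expressing S. cerevisiae strain. Cells had been washed out of glucose medium and diluted 1:100 into galactose -URA medium, pH 6.0.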
RE007 growth inh = qHTS Assay for Inhibitors of the HIV-1 protein Vpr | S. pombe RE007 Vpr strain, BacTiter-Glo ATP luminescence, 24 h; control for the full effect not named in the record | Potency, µM (titrated, usually from 92.2 µM), without a hit: at the top dose activity change, negative = less growth | 0.21% of 360,000 active | AID 651644, 2012; active = well fitted falling curve with a large enough effect; inconclusive = small, poorly fitted or top-dose-only effect; inactive = no such curve, though single readings can be large or run the other way;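 further: on the % scale 0 is the no-effect control and ±100 the full control effect; nearly all actives have a fitted effect of over 50% in size; the assay follows cell death caused by Vpr and the record does not say whether a fall means rescue or toxicity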
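Fission yeast strain RE007, carrying one chromosomally integrated HIV-1 vpr copy, was seeded at OD 0.01 in PMG+AL medium with 23 nL pinned compound. After 24 h at 30 °C and 99% humidity, viability was read by BacTiter-Glo luminescence.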
SARS PLpro yeast = qHTS of Yeast-based Assay for SARS-CoV PLP | S. cerevisiae expressing SARS-CoV PLpro, growth rescue; control for the full effect not named in the record | 0.19% of 330,000 active | Potency, µM (series often up to 32.9 µM), for inactives: at the top dose activity, positive = growth rescue; further: 0% is about no effect; nearly all actives have a fitted effect of over 55% in size; growth read by luminescence after 48 h
Marburg entry inh = qHTS for inhibitors of binding or entry into cells for Marburg Virus | Marburg virus pseudotyped entry inhibition, cell reporter; control for the full effect not named in the record; about a third of the inactives were read at about 46 µM | Potency, µM (highest dose often 37.8 µM), inactives show top-dose activity change, negative = inhibition, hits mostly inhibitors | 1.8% of 300,000 active | AID 540276, 2011; active = well fitted inhibition curve with a large enough effect; inconclusive = small, poorly fitted or top-dose-only effect, or effect the other way; inactive = flat fitted curve, though single readings scatter; tested in HEK293 cells; about a fifth of its hits are not listed in these tables; further: on the % scale 0 is the no-effect control and ±100 the full control effect; luciferase read-out
Cruzain inh noDet = qHTS Assay for Promiscuous and Specific Inhibitors of Cruzain (without detergent) | purified cruzain, Z-FR-AMC fluorescence, no detergent | Potency, µM, without a hit: max response, negative = inhibition, hits mostly inhibitors | 2.3% of 200,000 active | AID 1476, 2009; active means well fitted curve in the direction sought with a large enough effect; inconclusive means small, poorly fitted or top-dose-only effect, or another doubt; inactive means no such curve, though single readings can be large; an effect the other way counts as inactive or inconclusive;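 further: plate controls were enzyme without inhibitor for no effect and buffer without enzyme for full effect; nearly all actives have a fitted effect of over 40% in size; top concentration of the series not given in the record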
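Detergent-free condition (0.00005% Triton X-100) in acetate buffer pH 5.5 with DTT. 1.5 nM enzyme and compound were pre-mixed 15 min, then 2 uM Z-FR-AMC substrate added; reaction progress from fluorescence change between first and third reads (60 s).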
* = called active by the depositor; ? = inconclusive; / = not tested or not shown; & = joins results of further samples; [ ] = dose if it differs, or a comment. Unless noted, the call rests on the fitted dose curve; in most records, active means well fitted rising curve with a large enough effect; inconclusive means small, poorly fitted or top-dose-only effect; inactive means no such curve, though single readings can be large or run the other way. Potency means the concentration at half of the fitted maximal effect.

SMILES	Cruzain Triton	StopGo reporter	LASV entry inh	NS1 inh	RE007 growth inh	SARS PLpro yeast	Marburg entry inh	Cruzain inh noDet
CC(C)(CO)NCc1cccs1	/	?	/	6%	19%	-1%	/	/
Cc1c(Cl)cccc1NC(=O)Nc1nnc(N(C)Cc2ccccc2)s1	-5.2%	-17%	-10%[46.1 µM]	/	/	/	-6%[46.1 µM]	3%
Nc1cc(OC(=O)c2ccccc2Br)nn1S(=O)(=O)c1ccccc1	-12%	7%	-3%	-25%	-7%	-2%	11%&4%	4%
CC(C)NCC#CCOc1ccc(Cl)cc1	/	2%	14%	5%	4%	0%	-17%	/
CC(C)CCNC(=O)CC1C(=O)N(Cc2ccccc2)C(C)c2nc3ccccc3n21 (configuration not stated)	-7.0%	23%	3%	-3%	-1%	-1%	?	?
CN1C(=O)CC(Nc2cccc3cccc(N)c23)C1=O (configuration not stated)	/	-10%	-25%[46.1 µM]	/	-26%	0%	2%[46.1 µM]	/
O=C1Nc2cc(C(=O)NCCCN3CCCC3)ccc2S/C1=C/c1ccccc1F	/	-18%	/	2%	-7%	-3%	/	/
O=C(c1nc(SCc2ccc([N+](=O)[O-])cc2)n2ccccc12)C(F)(F)F	/	-29%	-5%[46.1 µM]	0%	1%	1%	?	/
CCOc1cc(C=O)cc(Br)c1OCC(N)=O	/	-4%	/	-3%	36%	4%	/	/
COc1cc(OC)cc(-c2nnc(SCC(=O)N3CCC(C)CC3)o2)c1	-4.4%	?	-20%[46.1 µM]	/	/	/	-11%[46.1 µM]	-2%
Clc1cccc(-c2nc(-c3ccccn3)no2)c1	-5.0%	?	1.8µM*	-15%	?	-6%	?	10%
CCn1cc([N+](=O)[O-])c(C(=O)Nc2ccn(Cc3ccccc3)n2)n1	-0.5%	-11%	12%	-2%	/	-4%	5%	8%
O=C(O)c1ccccc1-c1cn2cc(Cl)ccc2n1	/	0%	?	/	1%	-7%	-1%[46.1 µM]	/
O=C(CCc1ccc(S(=O)(=O)N2CCOCC2)cc1)Nc1cc(Cl)ccc1N1CCOCC1	-0.1%	17%	-14%	0%	-14%	0%	-8%&-8%	?
COc1cc(C2C(C#N)=C(N)Oc3n[nH]c(-c4cccs4)c32)cc(OC)c1O (configuration not stated)	/	0%	2%	11%	7%	1%	-6%	/
CCN=c1sc(C(=O)OC)cc(=O)n1CC	5.4%	-18%	-7%	-5%	-3%	-10%	-24%	-5%
O=C1c2ccccc2C2(c3ccccc3)N1CCN2C(=O)C(Cl)(Cl)Cl (configuration not stated)	/	?	-26%	0%	2%	-6%	?	/
CCCC(=O)Nc1cc(S(=O)(=O)N2CCOCC2)ccc1N1CCCCC1	/	9%	1%	/	-6%	-2%	-5%	/
Cc1ccc(C)c(SCC(=O)NNC(=O)c2ccccc2)c1	/	23%	3%	-7%	2%	0%	1%[46.1 µM]	/
COc1cccc(NC(=O)CN(C)C(=O)CC(C)c2ccccc2)c1 (configuration not stated)	/	-2%	11%[46.1 µM]	8%	-8%	-1%	3%[46.1 µM]	/
C1COCCNCCOCCOCCOCCN1	-2.1%	-30%	6%	-1%	/	11%	-5%	-5%
Cc1ccc2nc(-c3ccccc3)nc(SC(C)C(=O)NCc3cccs3)c2c1 (configuration not stated)	-4.0%	/	/	4%	/	?	9%	-27%
Cn1c2c(c(=O)n(C)c1=O)CN(CCN1CCNCC1)CN2	-3.0%	-16%	0%	12%	-17%	1%	0%	-5%
O=C(Nc1nc2c(s1)CCCC2)c1cc(-c2ccccc2)nc2ccccc12	-6.1%	0%	-10%	9%	0%	-21%	-24%	20µM*
COc1ccc(Nc2nc(-c3c(C)nc4ncccn34)cs2)cc1	/	?	/	2%	-16%	-4%	/	/
O=C(c1cn(-c2ccccc2)nc1-c1ccc(F)cc1)N1CCOCC1	0.1%	15%	-12%	-22%	13%	0%	1%	5%
CN(CCc1cnn(C)c1)C(=O)CCc1nnc(CCCc2ccccc2)o1	/	41%[activator]	8%	-2%	11%	-1%	?	/
CCOC(=O)C(NC(=O)Nc1ccc(C(N)=O)cc1)(c1ccccc1)C(F)(F)F (configuration not stated)	-0.7%	-19%	13%	?	8%	?	-2%	0%
Cc1cccc(OCCCC(=O)Nc2nc3ccccc3[nH]2)c1	/	17%	?	/	5%	0%	-2%[46.1 µM]	/
O=C(OCCN(CCOC(=O)c1ccncc1)S(=O)(=O)c1cccs1)c1ccncc1	2.1%	-16%	-1%	-2%	-25%	9%	?	2%
Cc1nn(-c2ccc(Cl)cc2Cl)c(=O)c2ccccc12	-1.9%	/	-19%	-6%	6%	27%	4%	5%
CC(=O)N1CCOc2ccc(S(=O)(=O)NCCc3ccc(S(N)(=O)=O)cc3)cc21	/	-1%	/	20%	-4%	2%	/	/
CC(=O)c1ccc(NC(=O)c2ccc([N+](=O)[O-])o2)cc1	/	45%[activator]	/	-117%	-27%	-16%	/	/
O=C(Nc1ccc2snnc2c1)Nc1cccc2ccccc12	-9.9%	21%	?	7%	6%	-27%	?	-14%
C=CCNc1nc(NCC)nc(N2CCOCC2)n1	3.6%	-18%	20%	-1%	9%	-5%	-29%	-3%
COc1ccc(S(=O)(=O)N2CCCCCC2)cc1NC(=O)Cc1ccccc1	/	9%	3%	/	-8%	0%	-3%	/
CNC(=S)Nc1cc(C(=O)N2CCCC2)ccc1N1CCCC1	/	18%	/	9%	14%	0%	/	/
CCOc1ccc(-n2c(SCC(=O)N3CCCc4ccccc43)nc3c([nH]c4ccccc43)c2=O)cc1	0.1%	-18%	-15%[46.1 µM]	/	/	/	/	11%
O=C(Nc1nc2c(s1)CCCC2)c1cc2n(n1)C(C(F)(F)F)CC(C1CC1)N2 (configuration not stated)	7.3%	8%	?	-4%	-18%	-3%	?	12%
Cc1ccc(CNC(=O)CNC(=O)c2c(C)nn(C)c2Cl)cc1	/	-1%	14%[46.1 µM]	0%	-16%	1%	3%[46.1 µM]	/
COc1cccc(NC(=O)N(CCC(C)C)C2CCN(C(C)C)CC2)c1	0.5%	-22%	28%[46.1 µM]	/	/	/	/	3%
CC1CCCCC1NC(=O)c1cccc(S(=O)(=O)N2CCN(Cc3ccccc3)CC2)c1 (configuration not stated)	/	?	?	/	-19%	2%	?	/
COC(=O)c1ccc(Cn2nc(-c3cc(C)ccc3C)ccc2=O)cc1	/	-13%	?	-1%	8%	-3%	?	/
Cc1ccc(OCC(O)Cn2c(N3CCOCC3)nc3c2c(=O)[nH]c(=O)n3C)cc1 (configuration not stated)	-0.5%	-5%	0%	1%	0%	8%	-19%	5%
Cc1ccc(C)c(S(=O)(=O)N2C(=S)NC(=O)C2CC(C)C)c1 (configuration not stated)	-12%	16%	1%	-136%	9%	-18%	5%	-4%
NC(=O)[C@@H]1CCCN1Cc1nc(-c2ccc(C(F)(F)F)cc2)no1	/	-11%	/	3%	16%	1%	/	/
O=S(=O)(c1ccc(Cl)cc1)N1CN(CC2CCCO2)c2nc3ccccc3nc21 (configuration not stated)	/	-9%	/	12%	-2%	-12%	/	/
CCOC(=O)C1=C(C)N[C@@]2(O)c3ccccc3C(=O)[C@@]12O	3.1%	1%	9%	?	13%	6%	-10%	6%
O=C(O)CCCC(=O)Nc1ccc(S(=O)(=O)Nc2nccs2)cc1	/	4%	-18%	-2%	2%	1%	?	/
Cc1cccc(NC(=O)CN2CCN(C(=O)C3CCC3)CC2)c1C	/	-11%	?	/	-10%	-6%	32%	/
Cc1sc2ncnc(Sc3nnnn3-c3ccc(Cl)cc3)c2c1C	-1.7%	?	21µM*	-5%	-7%	-6%	?	-24%
C/C(=N\NC(=O)c1ccccc1C)c1ccc(N2CCOCC2)cc1	-2.3%	4%	-20%	-11%	-9%	4%	3%	-1%
CCc1ccc(/C=N/Nc2nn[nH]n2)cc1	-3.0%	30%	-1%	13%	8%	-2%	2%	1%
CCC(c1nnnn1C1CCCC1)N1CCN(C(=O)c2ccco2)CC1 (configuration not stated)	-0.5%	-19%	0%	0%	7%	1%	1%[46.1 µM]	3%
CC1CCCN(Cc2c(O)ccc3c(=O)c(Oc4ccccc4Cl)c(C(F)(F)F)oc23)C1 (configuration not stated)	-2.0%	-5%	-11%[46.1 µM]	/	/	/	1%[46.1 µM]	5%
Cc1coc2cc3oc(=O)c(CC(=O)NCc4ccccc4)c(C)c3cc12	0.9%	40%[activator]	-19%[46.1 µM]	/	/	/	-11%[46.1 µM]	12%
CCC1CCCCN1S(=O)(=O)c1ccc(NC(=O)c2snnc2C)cc1 (configuration not stated)	/	?	/	-10%	2%	-2%	/	/
NC(=O)C1CCC(NC(=O)OCc2ccccc2)CC1 (configuration not stated)	-2.0%	36%[activator]	16%	-2%	1%	-2%	?	0%
Cc1cc(Cl)c(OCCn2ccnc2)c(Br)c1	/	-17%	/	-63%	6%	-1%	/	/
COc1ccc(-c2cc(C(C)=O)c(C)n2CCC(=O)Nc2ccc(C)c(Cl)c2)cc1	-6.6%	-20%	-27%[46.1 µM]	/	/	/	/	5%

Following part.
SMILES	Cruzain Triton	StopGo reporter	LASV entry inh	NS1 inh	RE007 growth inh	SARS PLpro yeast	Marburg entry inh	Cruzain inh noDet
COc1cccc(N=Nc2c(O)[nH]c(=S)[nH]c2=O)c1	/	42%[activator]	/	1%	-1%	0%	/	/
Cc1ccc(CS(=O)Cc2ccc(C(=O)NCC(C)c3ccccc3)o2)cc1 (configuration not stated)	/	-9%	/	-11%	3%	-4%	/	/
COc1ccc(CNC(=O)C2CCCN(c3ncnc4c3nc3n4CCCCC3)C2)cc1 (configuration not stated)	/	-23%	12%[46.1 µM]	3%	-4%	-2%	5%[46.1 µM]	/
O=C(/C=C/NCc1cccnc1)c1ccc(Br)cc1	/	0%	2%	/	-11%	/	-4%	/
